# Calb FLC = C. albicans growth inhibition with fluconazole, primary screen, CaCi-2 strain, Alamar Blue fluorescence | actives 0.57% (n = 300,000) | C. albicans CaCi-2 (fluconazole-resistant clinical isolate) + fluconazole, 48 h | growth inhibition, % (test concentration not listed);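 active means most replicates above 75%; inconclusive means exactly half above 75%; inactive means most below 75%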;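 further: all wells also contain fluconazole at 8 µg/ml as a sub-toxic cotreatment; 0% = median of DMSO wells and 100% = median of geldanamycin control wells; wells of about 8 µL received 7.5 nL stock; the first replicate is given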
# Beta cell apopt = inhibitors of cytokine-induced beta cell apoptosis, primary screen, luminescence; INS-1E cytokine-induced death, ATP luminescence, 48 h; percent of positive-control rescue, neutral wells zero; protection from apoptosis, % (no concentration beside the values); actives 0.8% (n = 300,000);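 active means all replicates at 75% or more, or half of them and the mean; inconclusive means half reach 75% but not the mean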;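 further: 0% = cytokine-treated negative control wells and 100% = positive control rescue; higher means more ATP so stronger rescue from cytokine killing; wells of about 40 µL received 100 nL stock; the first replicate is given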
# A1 inh = caspase 3/7 activation in MEF A1-2A-BIM cells, primary screen, A1 inhibitor project, cell-based, luminescence, HTS; Caspase-Glo 3/7 luminescence, 3 h; percent of clofoctol response, vehicle zero; caspase activation, % (concentration not given with the values); actives 0.066% (n = 330,000);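 active means over half of replicate activation scores above 10%, or exactly half above 10 with the replicate mean above 10; inconclusive means replicate mean below 10 yet half the replicates above 10; inactive means over half of replicates below 10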;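 further: wells of about 30 µL received 50 nL stock; many hits fall short of the cut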
# UCH37 inh = inhibitors of human UCH37 deubiquitinase, primary screen, biochemical, Ub-AMC cleavage, fluorescence | AID 588478, 2011 | Ubiquitin carboxyl-terminal hydrolase isozyme L5 (Homo sapiens), Q9Y5K5 | inhibition, % (concentration not given with the values) | actives 0.33% (n = 330,000) | purified proteasome/UCH37;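 active means mean of two replicates above 20%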;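 further: 0% = compound-free wells with enzyme and 100% = wells lacking proteasome; stock transfer was 100 nL into about 20 µL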
#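 Material: human UCH37 enzyme supplied as purified proteasome complex. Measure: % inhibition of Ub-AMC cleavage fluorescence. Medium: pH 7.4 Tris-HCl (50 mM) with ovalbumin, ATP-MgCl2, DTT. Times: 30 min preincubation with enzyme, 25 min cleavage at room temperature. Detection: AMC fluorescence intensity at 355/460 nm.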
# LANA-H2A inh = blockers of LANA interaction with H2A/H2B – biochemical, FP readout, HTS, primary screen; Protein LANA1 (Human herpesvirus 8 type P (isolate GK18)), Q9QR71; actives 0.6% (n = 320,000); cell-free LANA-H2A/H2B peptide, fluorescence polarization; inhibition, % (concentration not given with the values); in the data active means inhibition mostly above about 10%, no sharp cut-off; inactive means mostly below about 6.7%;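 further: stock transfer was 7.5 nL into about 10 µL; 0% = median of vehicle wells and 100% = median of positive control wells; one replicate is shown; the record names a cut of 25% in any replicate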
# Target sequence (Q9QR71 whole entry, looked up): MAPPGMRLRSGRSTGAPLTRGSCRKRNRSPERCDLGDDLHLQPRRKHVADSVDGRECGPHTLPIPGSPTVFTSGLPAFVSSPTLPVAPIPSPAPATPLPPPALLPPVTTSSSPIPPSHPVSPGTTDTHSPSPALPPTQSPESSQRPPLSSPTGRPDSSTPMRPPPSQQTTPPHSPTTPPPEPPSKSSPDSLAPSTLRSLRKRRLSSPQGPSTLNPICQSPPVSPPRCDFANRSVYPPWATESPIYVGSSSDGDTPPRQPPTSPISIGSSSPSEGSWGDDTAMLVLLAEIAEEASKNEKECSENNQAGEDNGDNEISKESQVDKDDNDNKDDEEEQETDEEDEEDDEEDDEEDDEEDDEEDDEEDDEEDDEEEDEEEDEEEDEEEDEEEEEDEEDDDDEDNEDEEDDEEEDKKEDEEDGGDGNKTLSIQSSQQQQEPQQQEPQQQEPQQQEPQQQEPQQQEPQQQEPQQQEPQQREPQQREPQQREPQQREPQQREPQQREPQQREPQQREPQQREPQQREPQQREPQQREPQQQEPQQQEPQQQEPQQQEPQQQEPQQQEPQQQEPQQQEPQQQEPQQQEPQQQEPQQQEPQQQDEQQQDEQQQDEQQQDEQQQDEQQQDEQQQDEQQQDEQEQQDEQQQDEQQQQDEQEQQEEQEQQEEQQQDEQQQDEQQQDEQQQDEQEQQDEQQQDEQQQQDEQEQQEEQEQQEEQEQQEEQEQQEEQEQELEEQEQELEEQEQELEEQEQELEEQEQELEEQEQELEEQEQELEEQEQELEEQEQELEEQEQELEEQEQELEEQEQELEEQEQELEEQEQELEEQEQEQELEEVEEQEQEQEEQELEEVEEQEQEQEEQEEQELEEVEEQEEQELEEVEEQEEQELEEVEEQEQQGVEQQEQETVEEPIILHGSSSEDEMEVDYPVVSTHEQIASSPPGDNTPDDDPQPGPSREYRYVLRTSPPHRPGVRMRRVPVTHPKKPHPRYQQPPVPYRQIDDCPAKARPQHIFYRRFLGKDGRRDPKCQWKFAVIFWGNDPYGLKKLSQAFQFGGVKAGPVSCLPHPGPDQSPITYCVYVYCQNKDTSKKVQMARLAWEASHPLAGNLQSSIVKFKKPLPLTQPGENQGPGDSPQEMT
# T cruzi inh = inhibitors of intracellular T. cruzi growth, primary screen, luminescence, NIH3T3 host cells; T. cruzi beta-gal in NIH3T3, 90 h; inhibition, % (concentration not given with the values); actives 1.4% (n = 300,000); AID 1885, 2009;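 active means mean inhibition across valid replicates above about 55%, limit read from the data; inconclusive means mean below that limit but half or more replicates reach it; inactive means mean below it, under half of replicates reach it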;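 further: signal also drops with host cell toxicity which is not excluded here; 0% = plate median of DMSO wells and 100% = zero luminescence signal; higher percent means less beta-gal luminescence so fewer parasites; stock transfer was 50 nL into about 50 µL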
# Beta2AR agonist = beta2AR agonists driving receptor internalization, primary screen, cell-based, FAP fluorogen, flow cytometry. Beta-2 adrenergic receptor (Homo sapiens), P07550. Am2.2-beta2AR cells; reference of the scale not given here. response, % (no concentration beside the values). actives 0.43% (n = 340,000);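 active means response above a set limit, near 3 SD of response in nonfluorescent compounds, cut at about 42% in these data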;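 further: stock transfer was 100 nL into about 11 µL; a reference agonist was the positive control; negative values mostly stem from fluorescent compounds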
# RanGTP-Impb inh = inhibitors of RanGTP-importin-beta interaction, primary screen, biochemical, FRET, CFP-Ran, YFP-importin-beta, homogeneous | cell-free CFP-Ran/YFP-importin-beta FRET ratio | actives 1.1% (n = 300,000) | inhibition, % (test concentration not listed);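 active means most replicates above 15%; inconclusive means exactly half above 15%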;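 further: 0% = DMSO wells and 100% = Ran loaded with GDP instead of GTP; wells of about 40 µL received 100 nL stock; the first replicate is given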
# Starred values were filed as active, the others as inactive; ? = inconclusive; nt = not tested or not shown.
No.	smiles	Calb FLC	Beta cell apopt	A1 inh	UCH37 inh	LANA-H2A inh	T cruzi inh	Beta2AR agonist	RanGTP-Impb inh
1	COc1ccccc1N1CCN(S(=O)(=O)c2c(C)[nH]c(C)c2C(=O)N2CCCCC2)CC1	20	-3	0.7	5.7	-4.4	-6	-3	23*
2	COc1ccc(Cc2nc3ccc(C(=O)N(C)Cc4nccs4)cc3o2)cc1OC	9	nt	nt	-2.0	nt	-27	-3	2.8
3	CC1CCN(S(=O)(=O)c2ccc(C(=O)Nc3nnc(-c4ccncc4)o3)cc2)CC1	?	-7	-0.3	3.0	0.3	-82	-1	4.7
4	CCOc1ncccc1C(=O)NNC(=O)c1ccc(NS(=O)(=O)c2cccs2)cc1	-10	8	0.3	-0.1	-3.7	-2	1	-2.4
5	c1ccc(-c2ccc(CNC3CC3)cc2)cc1	-26	-3	-0.3	1.5	0.4	2	4	-3.0
6	COC(=O)c1ccccc1NC(=S)NC(NC(=O)c1ccco1)C(Cl)(Cl)Cl (stereo not given)	9	-6	0.1	-1.9	-1.3	-7	-7	-0.8
7	Clc1cccc(N/N=C/c2ccc(N3CCOCC3)cc2)c1	-20	8	-0.7	nt	-2.8	60*	15	3.5
8	COc1ccc(C)cc1NC(=O)COC(=O)c1ccc2c(c1)OCCO2	nt	-1	-1.5	0.4	4.3	nt	0	nt
9	Cc1ccc(S(=O)(=O)Nc2cccc3c2O[C@H](CN(C)C(=O)Nc2cccc4ccccc24)[C@H](C)CN([C@H](C)CO)C3=O)cc1	nt	-1	-0.4	3.5	4.3	nt	7	nt
10	COc1ccc(C(=O)NNC(=O)c2ccccc2[N+](=O)[O-])cc1Br	1	-1	0.2	0.9	-1.3	0	1	-1.8
11	O=C(Nc1nc(-c2ccccn2)cs1)C1CCCC1	54	6	0.4	0.7	-2.6	-18	-24	1.3
12	COC(=O)CCC(=O)NS(=O)(=O)c1ccc(N=NN2CCOCC2)cc1	-10	-2	1.7	5.8	0.7	1	-1	-0.6
13	N#CCCn1cc(C=C(C#N)C#N)c(-c2ccc(-c3ccccc3)cc2)n1	-4	-8	-1.0	-10	-1.5	4	0	0.5
14	CN(C)CCOC(=O)NCC12CC3CC(CC(C3)C1)C2	-24	2	0.1	5.0	0.5	28	0	0.2
15	Cc1cccc(C(=O)N[C@H](C(=O)NCCc2ccc(S(N)(=O)=O)cc2)C(C)C)c1	-2	-2	0.0	4.8	0.4	1	2	-1.0
16	COCc1cc(Sc2ccc(OC)cc2)nc(-c2ccccc2)n1	-8	5	0.6	5.0	1.0	17	-9	-3.0
17	O=S(=O)(NCC(c1ccco1)N1CCc2ccccc2C1)c1ccc(F)cc1 (stereo not given)	-8	-1	-0.1	1.2	4.0	12	2	2.2
18	Cc1ccc(N(CC(=O)O)C2SC(=O)NC2=O)cc1 (stereo not given)	3	0	-0.1	0.4	-3.8	-3	-2	3.1
19	O=S(=O)(c1ccccc1C(F)(F)F)N1CCN(CC(O)COc2ccccc2F)CC1 (stereo not given)	5	-2	1.2	5.3	3.9	12	-15	1.0
20	O=C(/C=N/O)NCCCN1CCCCCC1	-18	-9	1.2	nt	0.1	4	1	-1.6
21	COCCN(C(=O)c1ccccc1)c1nc(-c2ccc(OC)cc2)cs1	2	2	-0.1	3.9	1.0	9	-1	-0.7
22	CCc1ccccc1NC(=O)c1ccc(F)c(S(=O)(=O)N2CCC(C(N)=O)CC2)c1	-9	1	0.5	-1.1	6.3	6	-2	nt
23	Cc1cc(C)cc(N(CC(=O)Nc2cccc(C)c2C)S(=O)(=O)c2c(C)[nH]c(=O)[nH]c2=O)c1	-2	-3	?	4.6	1.3	4	0	1.0
24	Cc1ccc(C)c(COC(=O)c2cc([N+](=O)[O-])ccc2N2CCOCC2)c1	5	5	-0.6	3.5	1.0	23	-2	5.0
25	COc1ccc(C)cc1NC(=O)C1CCCCN1S(=O)(=O)c1ccccc1 (stereo not given)	nt	-1	-0.4	4.3	4.3	nt	-2	nt
26	C[N+]1(CCOC(=O)C2(c3ccccc3)CCCC2)CCCCC1	-9	-1	0.0	nt	2.2	-6	0	3.5
27	COCc1[nH][nH]c(=O)c1C=Nc1ccc(F)cc1F	-152	-2	0.4	6.3	3.2	-6	6	6.3
28	COc1ccc(Cl)c2sc(N3CCN(C(=O)C4=COCCO4)CC3)nc12	15	nt	0.1	9.6	1.1	5	10	-2.3
29	Cn1c(CO)cnc1SCc1ccc([N+](=O)[O-])cc1	-8	-3	0.4	1.5	2.4	-4	-1	9.5
30	Cc1nc2n[nH]c(N)c2c2c1COC(C)(C)C2	5	-4	0.5	0.9	2.0	-3	7	-1.0
31	OCCC1CN(Cc2ccc3cc(Cl)ccc3n2)CCN1Cc1ccsc1 (stereo not given)	-3	-6	-0.5	2.0	0.5	23	-4	5.4
32	NC(=O)NC(=O)COC(=O)c1sc2ccccc2c1Cl	0	7	0.7	0.8	0.1	-21	0	-1.8
33	Cc1nc2c(C)c(C)c(C)c(C)c2nc1C	-3	2	-0.3	-5.0	-2.3	-2	0	-1.8
34	O=C(O)c1c(Cl)c(Cl)c(Cl)c(Cl)c1C(=O)N1CCCCCC1	1	1	0.9	1.3	-1.5	-8	-4	?
35	O=C(NCC(=O)N1CCN(c2ccccc2O)CC1)c1ccco1	9	-6	-0.4	1.0	-1.6	-2	-6	-2.2
36	Cc1ccc(NC(=O)c2ccc3nc[nH]c3c2)cc1C	0	-2	-6.8	2.4	-1.2	-21	4	0.8
37	CCOC(=O)c1oc2ccccc2c1NC(=O)CN1CCN(C)CC1	-11	-5	17*	-1.7	0.9	-2	4	0.0
38	Cc1ccc(C(=O)NC(NCC2CCCO2)C(Cl)(Cl)Cl)cc1 (stereo not given)	11	1	0.3	2.8	16	-10	-2	-1.5
39	Cc1ccccc1N(C(=O)c1ccccn1)C(C(=O)NCc1ccccc1)c1ccncc1 (stereo not given)	nt	1	0.7	2.4	4.1	0	-3	5.1
40	Cc1nc2ccccc2c2oc(C(=O)NC3CC3)cc12	-2	10	1.2	4.3	-0.9	-3	-6	8.2
41	O=C1Cc2ccccc2N1c1ccccc1	-1	nt	-0.1	1.9	2.4	-1	-8	-6.7
42	COc1ccccc1CCNC(=O)c1ccoc1C	1	-2	0.0	4.4	4.9	0	14	6.7
43	CCC(Sc1nc(N)c(NC(=O)c2ccc(OC)cc2)c(=O)[nH]1)C(=O)O (stereo not given)	-3	2	0.3	0.2	1.5	0	0	4.6
44	C/C(=N/N=C/c1ccccc1O)c1ccccc1O	-10	1	-8.4	nt	2.9	-10	-2	-0.8
45	Cc1ccc(-c2nnn3c2nc(NCCc2ccc(S(N)(=O)=O)cc2)c2ccccc23)cc1	1	8	0.4	nt	1.0	-10	6	4.7
46	N#Cc1c(-c2ccccc2)nc2n1CCS2	-11	-15	0.9	-0.9	-2.1	-2	-22	-1.5
47	COc1ccc(CCNc2oc(-c3ccco3)nc2C#N)cc1	32	2	-0.1	-40	0.1	-6	-12	26*
48	O=C(C1CC1)N1CCC(Oc2cccc(C(=O)N3CCCCC3CCO)c2)CC1 (stereo not given)	-14	-4	-0.3	-0.2	0.8	3	1	1.8
49	O=C(CNC(=O)c1ccco1)OCc1ccc(Br)cc1	2	nt	0.9	-0.2	0.6	-11	-4	-1.7
50	Cc1ccc(S(=O)(=O)NCCS(=O)(=O)N2CCN(c3ccccc3)CC2)cc1	-3	2	0.9	2.2	1.3	9	5	-0.8
51	O=c1[nH]c(CN(CCc2ccccc2)S(=O)(=O)c2ccc(Cl)cc2)nc2ccccc12	-3	-8	0.2	3.1	nt	8	-20	4.1
52	COc1ccc2cc(C(N)=O)c(=Nc3ccccc3)oc2c1	-2	0	0.6	-2.1	-6.6	-3	-11	2.1
53	Cc1ccccc1OCc1nnc(SCC(=O)NCc2ccccc2)n1C	-1	-3	0.3	-0.7	-4.5	3	-7	?
54	CN(C(=O)CSc1nnc(NCc2ccccc2)s1)C1CCS(=O)(=O)C1 (stereo not given)	-1	-5	0.5	0.3	0.0	8	4	1.2
55	CC(C)n1ncc2c(C(=O)NCc3ccccc3CN(C)C)cc(C3CC3)nc21	nt	5	2.5	-59	0.5	nt	-2	nt
56	CCCCn1c(N)c(N(CCC(C)C)C(=O)C2CCCN(C(=O)c3ccc(Cl)cc3)C2)c(=O)[nH]c1=O (stereo not given)	0	nt	0.0	-4.5	-0.5	1	-3	-0.2
57	CN(C)C1=NC(=O)/C(=C\c2ccccc2)S1	1	8	0.3	9.6	-6.4	7	-1	?
58	Cc1cccc(C)c1NC(=O)N1CC=C(n2c(=O)[nH]c3ccccc32)CC1	-2	-2	0.5	3.2	-0.3	1	-11	-2.0
59	O=C1CC(CCC(=O)NC2CC2)c2ccccc2N1 (stereo not given)	6	-3	-0.9	3.3	-6.3	-16	1	-5.3
60	COc1cc(N)c(Br)cc1C(=O)O	4	-3	0.2	4.8	0.8	-10	-5	-1.2

# (further entries)
No.	smiles	Calb FLC	Beta cell apopt	A1 inh	UCH37 inh	LANA-H2A inh	T cruzi inh	Beta2AR agonist	RanGTP-Impb inh
61	COc1cccc(CN(C)C(=O)CNC(=O)c2ccc(-c3ccccc3)cc2)c1OC	0	9	0.3	3.5	-5.3	3	-7	-0.3
62	COc1ccc(N2C(=O)CSCC2=O)cc1OC	-12	nt	-0.5	0.5	0.3	-14	-4	-3.3
63	COc1ccc(C2CCN(Cc3cccnc3)CC2O)cc1 (stereo not given)	-5	-1	0.1	1.6	-3.4	-1	-1	0.4
64	Cc1cc(C)cc(NC(=O)c2cccc3c2C(=O)N(C2CCCCC2)C3)c1	10	6	-0.3	-47	2.1	6	10	1.6
65	CCOc1ccc(N2C(=O)S/C(=C\c3ccc(O)c(OC)c3)C2=O)cc1	-15	-8	-0.5	4.6	4.1	6	15	-6.3
66	CCc1ccccc1NC(=S)N(Cc1cccnc1)Cc1ccco1	-1	-10	2.2	0.4	-5.4	?	-3	0.5
67	COc1cccc(C(=O)NC(=S)N2CCN(c3ccc(C(F)(F)F)cc3[N+](=O)[O-])CC2)c1	1	nt	0.9	2.3	-0.8	17	5	3.2
68	CCOC(=O)c1nc2cc3n(c(C)c-2c1C)C(C)C(C)=C3C (stereo not given)	-12	-3	-0.2	-142	-1.1	nt	2	nt
69	Cc1ccc(NC(=S)N2CCN(S(C)(=O)=O)CC2)cc1	-7	-6	-1.2	0.4	-2.6	0	-2	2.4
70	CC(C)Sc1cc(N2CCOCC2)nc(-c2ccc(Cl)cc2)n1	-2	-5	0.3	-0.6	1.2	30	-4	5.3
71	COc1ccc(CCCc2n[nH]c(=S)n2C)cc1C	20	-5	-0.1	4.7	3.8	-3	4	8.4

# High-throughput results: PubChem BioAssay, several laboratories
